Sfp PPTase inh: qHTS Assay for Inhibitors of Bacillus subtilis Sfp phosphopantetheinyl transferase (PPTase) | 4'-phosphopantetheinyl transferase ffp (Bacillus subtilis), Q9F4F7 | Biochemical Sfp PPTase activity, qHTS | Potency, µM, without a hit: max response, negative = inhibition, hits mostly inhibitors | 310,000 compounds, 3.5% hits | AID 1490, 2009; active = well fitted inhibition curve with a large enough effect; inconclusive = small, poorly fitted or top-dose-only effect, or another doubt; inactive = no such curve, though single readings can be large or run the other way;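 note: the enzyme is Sfp with the accession as filed and its product quenches rhodamine fluorescence; potency is the fitted concentration of half-maximal effect; 0% = enzyme reaction without inhibitor and -100% = no enzyme wells; top concentration of the series not given in the record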
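Fluorescence-quenching assay with 15 nM Sfp, 5 uM rhodamine-CoA and 12.5 uM BHQ-2-labelled ybbR peptide in pH 7.6 Hepes/MgCl2 buffer. Enzyme was pre-incubated with compound for 15 min at room temperature. Rate was taken from the 30-min fluorescence change (525/598 nm).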
Menin-MLL FL inh: qHTS Assay for Inhibitors Targeting the Menin-MLL Interaction in MLL Related Leukemias: Competition With Fluorescein Labeled MLL-derived Peptide. Fluorescence polarization, fluorescein-MLL peptide displacement from menin. 290,000 tested, under 10 active. FP activity change, % at 61.4 µM; inconclusive = falling polarisation curve, or a change in total fluorescence; inactive = total fluorescence flat and polarisation flat or rising; no compound was filed as active; the % refers to the polarisation; negative = inhibition;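 note: % of control where 0% means no effect; inhibitors lower the polarisation; unlabelled MLL peptide was the positive control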
Numbers without * were called inactive; ? = inconclusive; & = joins results of further samples; [ ] = another dose, or the depositor's remark. Only part of the results is shown (hit frequency here may not be typical).

The line under a structure holds: Sfp PPTase inh | Menin-MLL FL inh
COc1cc2c(cc1OC)[C@@H](Cc1cc(OC)c(OC)c(OC)c1)[N+](C)(CCCOC(=O)CC/C=C/CCC(=O)OCCC[N+]1(C)CCc3cc(OC)c(OC)cc3[C@H]1Cc1cc(OC)c(OC)c(OC)c1)CC2 (some centres undefined)
  -3% | -3.4
C=C1C2CC[C@@]3(C)C(c4ccoc4)OC(=O)C[C@@]13OC1CC(=O)C(C)(C)C(C(O)C(=O)OC)[C@]12C (some centres undefined)
  11% | -0.3
COc1ccc2[nH]cc(CCNc3nc(-c4ccccc4OC)nc4ccccc34)c2c1
  -24% | -8.0
CC(=O)CCOC1CCCCO1 (centres undefined)
  -14% | 0.2
COCCn1c(=O)c(-c2ccc(OC)cc2)nc2cnc(Oc3cccc(Cl)c3)nc21
  -9% | -1.4
NC(N)=NCCC[C@H](N)C(=O)NCC(=O)N[C@@H](CC(=O)O)C(=O)N[C@@H](CO)C(=O)O
  0% | -3.2
CC(C)=NOCc1ccc(-c2cn([C@@H]3COC[C@@H]3O)nn2)cc1
  14µM* | 4.8[11.7 µM]
C[C@@H]1COC(=O)O1
  17% | 0.1
CC(C)=CCC/C(C)=C/CO/N=C1/C[C@@H](O)[C@@H](O)[C@@H]2[C@@H]3C(=O)N(Cc4ccc5c(c4)OCO5)C(=O)[C@H]3CC[C@H]12
  17% | -6.4[11.7 µM]
COCCn1c(=O)c(-c2cccs2)nc2cnc(OCc3ccccc3)nc21
  11% | -8.5
CCCNC(=O)OC[C@@H]1O[C@H](CCO/N=C\c2ccc(C(=O)N3[C@H](c4ccc(C)cc4)[C@@H](C)CC[C@H]3C(=O)OC)cc2)C=C[C@@H]1Oc1ccc(OC)cc1
  7% | 1.2[11.7 µM]
COc1ccc(O[C@H]2C=C[C@@H](c3ccccc3)O[C@H]2CO/N=C\C[C@@H]2C=C[C@H](OC(C)=O)[C@H](COC(C)=O)O2)cc1
  12% | 0.9[11.7 µM]
NCCC[C@@H](CC(=O)N[C@@H]1CCNC[C@H]1C(=O)N[C@H](CC(=O)N[C@@H](CCC(=O)O)CC(=O)O)Cc1c[nH]c2ccccc12)NC(=O)C[C@H](Cc1c[nH]c2ccccc12)NC(=O)[C@@H]1CCCC[C@H]1N
  3% | 0.0
COc1ccccc1-c1ccc2ncnc(N3CCNCC3)c2c1
  16% | -2.3
CS(=O)(=O)Nc1cccc(-c2nc(NCc3cccnc3)c3ccccc3n2)c1
  -12% | 0.1
c1ccc(-c2ccc(N3CC[C@@]4(CCCNC4)C3)cc2)cc1
  -21% | 3.2
Cc1ccc(CNC(=O)[C@@H]2C[C@H]2[C@@H](NP(=O)(c2ccccc2)c2ccccc2)c2ccccc2)o1
  50µM* | -0.8
O=c1c(-c2ccc(Cl)cc2)nc2cncnc2n1Cc1ccc(F)cc1
  15% | 5.9
Cc1noc(C)c1-c1ccc2ncnc(NCCN3CCOCC3)c2c1
  -16% | 2.6
CCCn1c(C)nc2c(NCC3CCCN3CC)nc(C)nc21 (centres undefined)
  21% | -3.7

New compounds follow:
The line under a structure holds: Sfp PPTase inh | Menin-MLL FL inh
C[C@H]1CC[C@@H]2[C@@H](C)[C@H]3[C@H](C[C@H]4[C@@H]5CC=C6C[C@@H](O[C@]7(O[C@H]8O[C@@H](C)[C@@H](O)[C@@H](O)[C@@H]8O)C[C@@H](O[C@@H]8O[C@H](CO)[C@@H](O)[C@H](O)[C@@H]8O)[C@@H](O)[C@H](CO)O7)CC[C@]6(C)[C@H]5CC[C@@]34C)N2C1
  4% | ?
CCOC(=O)N/N=C1/C[C@@H](O)[C@@H](O)[C@@H]2[C@@H]3C(=O)N(Cc4ccc5c(c4)OCO5)C(=O)[C@H]3CC[C@@H]12
  4% | 1.0[11.7 µM]
C[C@](O)(C(=O)Nc1ccc(S(=O)(=O)c2ccccc2)cc1)C(F)(F)F
  -12% | -2.2
COC(=O)c1ccc(C(NC(=O)OCc2ccccc2)/C(C)=C/[C@@H](C)C(=O)NCc2nn(-c3ccccc3)nc2C)cc1 (some centres undefined)
  14% | -4.4
O=C(c1ccco1)N1CCC2(CCCN(Cc3ccncc3)C2)CC1
  -5% | 0.3
COc1cccc(COCCN2CCN(S(=O)(=O)c3ccccc3)CCC2=O)c1
  10% | -2.0
COc1ccc(-n2c(=O)c(-c3cccc(Cl)c3)nc3cncnc32)cc1
  28% | -1.7
O=c1c(-c2cccs2)nc2cnc(Oc3cccc(Cl)c3)nc2n1C[C@H]1CCCO1
  13% | 3.3
COc1ccc(-c2nc3c(c4c2C[C@H](c2ccccc2)OC4)CN(C(=O)c2cc(I)ccc2F)CC3)c(C)c1
  3% | -1.0[11.7 µM]
CCCCC1=CC2=C(OC(C)=O)C(=O)C(C)(OC(=O)CCC(=O)OC)C(=O)C2=CO1 (centres undefined)
  17% | 3.4
COc1ccc(Oc2ncc3ncc(=O)n(C)c3n2)cc1
  17% | -2.7
C=C(Nc1ccc(OC)cc1)C(=O)OC
  -8% | 0.3
CNC(=O)C[C@@H](N)C(=O)N[C@@H](C(=O)N[C@@H]1C(=O)N2[C@@H]1SC(C)(C)[C@@H]2C(=O)O)c1ccc(O)cc1
  ? | 2.0
O=C(c1cc(C(F)(F)F)cc(C(F)(F)F)c1)N1CCC2(CCCN(Cc3ccncc3)C2)CC1
  17% | 15
CC(S)C(=O)NCC(=O)O (centres undefined)
  -19% | 4.8
COC(=O)CCc1ccccc1S(=O)(=O)N(CCC(=O)OC)Cc1ccccc1
  -15% | -3.3
CC(=O)C[C@H](c1ccc([N+](=O)[O-])cc1)c1c(O)c2ccccc2oc1=O
  22% | -4.8[24.8 µM]
CC(=O)OC1CC[C@@]2(C)C3=CC(=O)[C@]4(C)C(CC5OC6(OCC(C)CC6Br)C(C)C54)C3CC[C@H]2C1 (some centres undefined)
  10% | 1.5
[N-]=[N+]=NCC1OC(n2cnc3c(=O)[nH]c(N)nc32)C(O)C1O (centres undefined)
  6% | -1.1
CC(=O)OCC(NC(=O)C1CCCN1C(=O)OC(C)(C)C)C1OC(n2cc(F)c(=O)[nH]c2=O)C(OC(C)=O)C1OC(C)=O (centres undefined)
  8% | 3.6

Other records follow:
The line under a structure holds: Sfp PPTase inh | Menin-MLL FL inh
CCCCCC(O)/C=C/C=O (centres undefined)
  5% | -7.1
Cc1noc(C)c1C(=O)N1CCC2(CCN(Cc3ccncc3)CC2)CC1
  6% | 2.4
Cc1ccc(-c2nn(CC(C)(C)C)c3ncnc(N)c23)cc1
  18% | -23
COc1ccc(C2/C=C\CN(C(=O)c3ccc(C)cc3)C(C)C(=O)N2Cc2ccc(F)cc2)cc1 (centres undefined)
  -1% | 0.8
Cc1ccc(S(=O)(=O)N[C@H]2COC(=O)[C@H](C)COC(=O)C/C=C\[C@H]2C)cc1
  -5% | 0.1[11.7 µM]
CC1=CC(=O)[C@@H]2C[C@H]1C2(C)C
  32%[activator] | -8.3
COCCn1c(=O)c(-c2ccc(Cl)cc2)nc2cnc(OCc3ccccc3)nc21
  17% | -1.0
Nc1ccc(CCNc2ncnc3c2ncn3C2OC(CO)C(O)C2O)cc1 (centres undefined)
  13% | -0.7
O=C(/C=C/c1cccc(F)c1)NC1CC1
  30% | 1.1
COc1ccc(-n2c(=O)c(-c3cccs3)nc3cnc(Nc4cccc(OC)c4)nc32)cc1
  -4% | ?
Cc1cnc(CNc2ncncc2-c2c(C)noc2C)cn1
  -25% | -1.9
COc1ccc(-c2nc3c(c4c2C[C@H](c2ccccc2)OC4)CN(C(=O)c2cccnc2)CC3)c(C)c1
  0% | -3.2[11.7 µM]
O=C1CCCCC2CCCCN12 (centres undefined)
  -1% | -1.2[138 µM]
C/C=C\c1ccc(OC)cc1
  26% | -1.0
COC(=O)CC1c2ccccc2C(Cc2ccc3c(c2)OCO3)=C(C)N1C(=O)OC (centres undefined)
  ? | 2.0
O=C(Oc1ccccc1)N1CCC[C@@]2(CCN(c3ccccn3)C2)C1
  18% | 5.8
CC(C)N1CCN(c2ccc(C(=O)c3c(-c4ccc(O)cc4)sc4cc(O)ccc34)cc2)CC1
  -20% | -0.2
CNC[C@H](O)[C@H](O)[C@H](O)[C@H](O)CO
  -1% | -5.4[24.8 µM]
CC1(O)/C=C\C=C(\CO)C2CC(C)(C)C2(O)CC1 (centres undefined)
  -1% | -0.1
CC(=O)Nc1ccc(-c2nc3ccc(Cl)cc3[nH]2)cc1
  -18% | ?

Complete entries as entered above.
`CC(=O)Nc1ccc(-c2nc3ccc(Cl)cc3[nH]2)cc1` is listed as Sfp PPTase inh: -18%; Menin-MLL FL inh: ?
`COc1ccc(-c2nc3c(c4c2C[C@H](c2ccccc2)OC4)CN(C(=O)c2cccnc2)CC3)c(C)c1` is listed as Sfp PPTase inh: 0%; Menin-MLL FL inh: -3.2[11.7 µM]

Next section.
The line under a structure holds: Sfp PPTase inh | Menin-MLL FL inh
CNc1nc2c(N)ncnc2n1[C@@H]1O[C@@H]2COP(=O)(O)O[C@H]2[C@H]1O
  14% | -2.0
COC(=O)N(/C=C/c1ccc(OC)cc1)CCc1ccc(OC)c(OC)c1
  2% | -1.7[11.7 µM]
O=c1c(-c2cccc(F)c2)nc2cncnc2n1Cc1ccc(F)cc1
  -19% | -4.5
CCCCCCCCCCCCC/C=C/[C@@H](O)[C@H](CO)NC(=O)CCCCCCC
  35%[activator] | 1.5
CS(=O)(=O)N1CCC2(CC1)CN(Cc1nccs1)C2
  19% | -1.4
c1ccc2c(N3CCOCC3)nc(-c3ccoc3)nc2c1
  9% | 1.5
CCCCCC1OC1C/C=C\C/C=C\C/C=C\CCCC(=O)O (centres undefined)
  5%&3% | 8.3
CC(C)CC1NC(=O)C(CCCN)NC(=O)C(C(C)C)NC(=O)C2CCCN2C(=O)C(Cc2ccccc2)NC(=O)C(CC(C)C)NC(=O)C(CCCN)NC(=O)C(C(C)C)NC(=O)C2CCCN2C(=O)C(Cc2ccccc2)NC1=O (centres undefined)
  39%[activator] | 0.4
CC(=O)OC1CC2C(C)(C)CCC(=O)[C@@]2(C)C2CC[C@@]3(C)C(c4ccoc4)OC(=O)C4OC43[C@]12C (some centres undefined)
  10% | 1.1
O=C(O)C1NCCN(C(=O)c2ccc3c(ccc4ccccc43)c2)C1C(=O)O (centres undefined)
  -10% | 0.4
CC/C=C\CC[C@H](OC(=O)c1ccc(Br)cc1)C1=CCCCC1=O
  18% | 8.2[11.7 µM]
OCCN1CCN(CCCN2c3ccccc3C=Cc3ccccc32)CC1
  ? | 6.7&-8.9&-0.4
COC(=O)C1=C(C)NC(C)=C(C(=O)OCCNCc2ccccc2)C1c1cccc([N+](=O)[O-])c1 (centres undefined)
  -15% | -6.7
C[C@@H]1CCC2[C@@H](C)[C@@H](O)O[C@@H]3O[C@@]4(C)CC[C@@H]1[C@@]23OO4 (some centres undefined)
  7% | 4.2
O=C(c1cccc(F)c1)N1CCC2(CCCN(Cc3ccccc3)C2)CC1
  14% | -5.4
OCCOC[C@H]1O[C@H](OCCO)[C@H](OCCO)[C@@H](OCCO)[C@@H]1OCCO (tested in a mixture with another compound)
  16% | 0.1
CC1CC=CC2C1C(=O)N(Cc1ccccc1)C2c1ccc2ccccc2c1-c1ccc(N(C)C)cc1 (centres undefined)
  -9% | -1.5
O=C(O)C(Oc1ccc2ccc(=O)oc2c1)c1ccccc1 (centres undefined)
  -15% | 1.0
OCC1=C[C@@H](O)[C@@H]2C=CO[C@@H](OC3O[C@H](CO)[C@@H](O)[C@H](O)[C@H]3O)[C@H]12 (some centres undefined)
  5% | 0.0
O=c1c(-c2ccc(Cl)cc2)nc2cnc(N3CCNCC3)nc2n1-c1ccccc1
  -18% | 9.4

Following part.
The line under a structure holds: Sfp PPTase inh | Menin-MLL FL inh
COC(=O)c1ccc(C(NC(=O)OCc2ccccc2)/C(F)=C/[C@@H](C)C(=O)NCc2cc(F)cc(F)c2)cc1 (some centres undefined)
  17% | -5.0
C=CCNC(=O)N1CCc2nc(-c3ccccc3)c3c(c2C1)CO[C@@H](C)C3
  12% | 0.4[11.7 µM]
O=c1c(-c2cccs2)nc2cnc(N3CCNCC3)nc2n1-c1ccccc1
  12% | ?
CC1CC[C@@]2(C(=O)O)CCC3(C)C(=CCC4[C@]5(C)CC(O)C(O)[C@](C)(CO)C5C(O)C[C@@]43C)C2C1C (some centres undefined)
  20% | -1.0
CN1CCN(c2ncc3nc(CCc4ccccc4)c(=O)n(C4CC4)c3n2)CC1
  -7% | ?
CC12C=C(/C=C/c3ccc(Br)cc3)C(C)(C1)C(c1ccc(Br)cc1)CC2=O (centres undefined)
  -3% | -0.7[11.7 µM]
CC(C)C[C@@H](CC(=O)N[C@@H](CCC(=O)O)CC(=O)O)NC(=O)[C@@H]1CCCC[C@H]1NC(=O)C[C@@H](NC(=O)C[C@H](Cc1ccccc1)NC(=O)[C@@H]1CCCC[C@H]1N)C(C)C
  5% | -6.7
CCNc1ncc2nc(CCc3ccccc3)c(=O)n(CCC#N)c2n1
  31%[activator] | -0.2

Screening data: PubChem, National Center for Advancing Translational Sciences (NCATS)
